Assay outcomes: PubChem, several laboratories
AF4-AF9 inh: inhibitors of human MLL-AF4/AF9 interaction | inhibition, % at 10 µM | actives 0.47% (n = 350,000) | AlphaScreen, biotin-AF4 peptide binding to FLAG-AF9 | P42568;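 active = every replicate reaching a set inhibition limit, whatever the replicate mean, cut at about 25% in these data; inconclusive = mean inhibition reaches that limit but some replicates miss it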;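 also: 0% = plate neutral control median and 100% = total signal loss; the record names both 10 and 1 µM as test concentration; the first replicate is given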
Beta apoptosis: beta cell apoptosis inhibition; INS-1E cytokine-induced death, ATP luminescence, 48 h; percent of positive-control rescue, neutral wells zero; protection from apoptosis, % (concentration not given with the values); actives 0.8% (n = 300,000); AID 435005;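 active = all replicates at 75% or more, or half of them and the mean; inconclusive = half reach 75% but not the mean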;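 also: 0% = cytokine-treated negative control wells and 100% = positive control rescue; higher means more ATP so stronger rescue from cytokine killing; wells of about 40 µL received 100 nL stock; the first replicate is given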
RanGTP-Imp inh: inhibitors of RanGTP-importin-beta interaction, primary screen, biochemical, FRET, CFP-Ran, YFP-importin-beta, homogeneous; cell-free CFP-Ran/YFP-importin-beta FRET ratio; actives 1.1% (n = 300,000); AID 2216; inhibition, % (test concentration not listed);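 active = most replicates above 15%; inconclusive = exactly half above 15%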;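 also: 0% = DMSO wells and 100% = Ran loaded with GDP instead of GTP; wells of about 40 µL received 100 nL stock; the first replicate is given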
Calb FLC: affects C. albicans growth with fluconazole | C. albicans CaCi-2 (fluconazole-resistant clinical isolate) + fluconazole, Alamar Blue growth, 48 h | growth inhibition, % (concentration not given with the values) | actives 0.57% (n = 300,000);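 active = most replicates above 75%; inconclusive = exactly half above 75%; inactive = most below 75%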;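 also: all wells also contain fluconazole at 8 µg/ml as a sub-toxic cotreatment; 0% = median of DMSO wells and 100% = median of geldanamycin control wells; wells of about 8 µL received 7.5 nL stock; the first replicate is given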
Vif A3G: inhibitors of Vif binding to APOBEC3G peptide, primary screen, biochemical, TR-FRET, GST-Vif 1-94, biotin-A3G peptide, dose response retest (AID 1117319). actives 0.57% (n = 260,000). TR-FRET GST-Vif / biotin-A3G peptide binding; higher % means a stronger effect; test concentration not given here; strong numbers were not always called active. inhibition, %, or IC50 in µM where a hit was titrated;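 active = above the screen mean plus three standard deviations and confirmed in dose response; inconclusive = results disagree or hit not tested in dose response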;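 also: Vif residues 1-94 fused to GST binding biotinylated APOBEC3G peptide 110-148; 0% = full assay without inhibitor and 100% = GST in place of GST-Vif; retest series ran down from 100 µM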
T cruzi repl: T. cruzi replication inhibition; T. cruzi beta-gal in NIH3T3, luminescence, 90 h; inhibition, % (concentration not given with the values); actives 1.4% (n = 300,000); AID 1885;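 active = mean inhibition across valid replicates above about 55%, limit read from the data; inconclusive = mean below that limit but half or more replicates reach it; inactive = mean below it, under half of replicates reach it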;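 also: signal also drops with host cell toxicity which is not excluded here; 0% = plate median of DMSO wells and 100% = zero luminescence signal; higher percent means less beta-gal luminescence so fewer parasites; stock transfer was 50 nL into about 50 µL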
Bfl-1 A1 inh: inhibitors of the anti-apoptotic protein A1, read as caspase activation; MEF A1-2A-BIM cells, Caspase-Glo 3/7 luminescence, 3 h; percent of clofoctol response, vehicle zero; caspase activation, % (concentration not given with the values); actives 0.066% (n = 330,000); AID 2462;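 active = over half of replicate activation scores above 10%, or exactly half above 10 with the replicate mean above 10; inconclusive = replicate mean below 10 yet half the replicates above 10; inactive = over half of replicates below 10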;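 also: wells of about 30 µL received 50 nL stock; many hits fall short of the cut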
LANA-H2B inh: blocks KSHV LANA binding to histone H2A/H2B | cell-free LANA-H2A/H2B peptide, fluorescence polarization | inhibition, % (test concentration not listed) | actives 0.6% (n = 320,000); in the data active = inhibition mostly above about 10%, no sharp cut-off; inactive = mostly below about 6.7%;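 also: stock transfer was 7.5 nL into about 10 µL; 0% = median of vehicle wells and 100% = median of positive control wells; one replicate is shown; the record names a cut of 25% in any replicate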
Target sequence (Q9QR71 whole entry, looked up): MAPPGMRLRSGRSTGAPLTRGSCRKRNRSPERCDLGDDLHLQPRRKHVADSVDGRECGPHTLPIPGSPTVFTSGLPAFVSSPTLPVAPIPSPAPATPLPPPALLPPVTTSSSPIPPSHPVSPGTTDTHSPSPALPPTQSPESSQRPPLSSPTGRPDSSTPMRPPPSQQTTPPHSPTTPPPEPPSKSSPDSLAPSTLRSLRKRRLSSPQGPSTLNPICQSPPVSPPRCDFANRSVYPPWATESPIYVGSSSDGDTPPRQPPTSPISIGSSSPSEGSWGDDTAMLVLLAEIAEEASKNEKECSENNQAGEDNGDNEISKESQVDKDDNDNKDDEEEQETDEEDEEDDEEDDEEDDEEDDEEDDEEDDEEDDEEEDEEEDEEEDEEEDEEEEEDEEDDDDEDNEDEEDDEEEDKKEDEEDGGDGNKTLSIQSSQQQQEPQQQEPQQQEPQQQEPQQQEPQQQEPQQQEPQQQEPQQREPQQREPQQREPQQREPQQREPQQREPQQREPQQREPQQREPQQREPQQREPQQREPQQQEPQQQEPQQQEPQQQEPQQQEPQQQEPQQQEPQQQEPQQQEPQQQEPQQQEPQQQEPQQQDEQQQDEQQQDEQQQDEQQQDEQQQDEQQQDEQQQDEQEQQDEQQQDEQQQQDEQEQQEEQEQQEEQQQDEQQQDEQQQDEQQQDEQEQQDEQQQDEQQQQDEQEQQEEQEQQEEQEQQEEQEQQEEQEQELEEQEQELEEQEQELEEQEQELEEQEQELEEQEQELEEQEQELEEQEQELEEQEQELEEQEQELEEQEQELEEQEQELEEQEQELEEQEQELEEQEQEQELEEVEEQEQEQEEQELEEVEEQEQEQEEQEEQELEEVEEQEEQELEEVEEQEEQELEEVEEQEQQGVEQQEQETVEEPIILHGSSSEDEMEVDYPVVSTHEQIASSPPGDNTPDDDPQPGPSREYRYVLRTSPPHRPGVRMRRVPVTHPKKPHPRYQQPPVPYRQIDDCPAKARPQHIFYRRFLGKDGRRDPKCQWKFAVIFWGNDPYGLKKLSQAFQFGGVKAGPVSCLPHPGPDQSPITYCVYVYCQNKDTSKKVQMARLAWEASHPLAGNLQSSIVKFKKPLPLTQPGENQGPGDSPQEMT
Starred values were filed as active, the others as inactive; ? = inconclusive; · = no result given; & = joins results of further samples. Rows are unselected; 4.3% or so of the library scored in one or more.

SMILES | AF4-AF9 inh | Beta apoptosis | RanGTP-Imp inh | Calb FLC | Vif A3G | T cruzi repl | Bfl-1 A1 inh | LANA-H2B inh
Cc1ccc(OCC(=O)Sc2ccc(C)cc2)cc1 | · | -11 | 0.1 | 17 | 13% | -6 | 0.5 | 6.7
COc1cc(C(=O)N(CCc2ccccc2)C2CC3CCC(C2)N3C)cc(OC)c1OC (stereo not drawn) | · | -6 | -2.9 | -6 | 6% | 6 | 0.3 | -2.6
CC(C)c1onc(C(=O)NCc2ccccn2)c1[N+](=O)[O-] | -0.7 | -8 | 1.3 | 23 | ? | 1 | 0.4 | -2.7
CCOc1ccc(NC(=O)C2CSC(c3ccncc3)=N2)cc1 (stereo not drawn) | -13 | -1 | 4.4 | 1 | 0% | 15 | -0.9 | -2.5
CC[C@@H](CC1CCCCC1)C(=O)N(Cc1ccccc1)c1ccccc1 | 0.9 | 13 | · | · | · | · | 0.5 | 3.1
COC(=O)C1CCN(c2ccc(C(N)=O)cc2[N+](=O)[O-])CC1 | 1.6 | -3 | -2.6 | -5 | 17% | -8 | 0.2 | 3.2
CC(C)NC(=O)Nc1ccc2c(c1)C(=O)N([C@@H](C)CO)C[C@@H](C)[C@@H](CN(C)S(=O)(=O)c1ccc(F)cc1)O2 | -3.5&-3.3 | -6 | · | · | · | · | -0.6 | 4.3
O=C(CCN1C(=O)C2C3C=CC(C4CC34)C2C1=O)Oc1ccc(Br)cc1 (stereo not drawn) | · | -4 | -5.3 | 8 | 4% | -6 | 0.7 | -0.7
CNS(=O)(=O)c1ccc(N2CCCC2=O)c([N+](=O)[O-])c1 | · | -1 | 3.9 | 59 | · | -30 | 0.6 | 5.5
CC(=O)c1cccc(N(CC(=O)NC2CCCCC2)C(=O)Cn2nnc(-c3ccccc3)n2)c1 | 1.0 | 0 | 0.4 | -8 | 4% | 3 | 0.2 | -3.5
O=C(Cc1ccccc1F)Nc1nc(-c2ccc(F)cc2)cs1 | -2.0 | -4 | 0.4 | -10 | 4% | 1 | -0.1 | -4.2
CCS(=O)(=O)N1CCC(NC(=O)c2cc(OC)cc(OC)c2)CC1 | · | · | -2.0 | 7 | 29% | -3 | -0.3 | -0.8
O=C(NC(=S)NNC(=O)c1cnccn1)c1ccc(Cl)cc1 | -0.7 | 4 | -0.6 | 94* | · | 11 | -0.6 | 21
Cc1nnc(NC(=O)c2nn(CC(C)C)c(=O)c3ccccc23)s1 | -0.1 | 3 | -0.6 | -4 | 3% | 3 | 0.6 | -4.7
CCC(=O)Nc1nnc(S(=O)(=O)N2CCCc3ccccc32)s1 | 1.1 | -5 | -0.6 | -14 | · | 10 | 0.8 | 3.1
CC(CCCC(C)(C)O)NCCO (stereo not drawn) | · | 0 | 0.8 | 25 | · | 4 | 1.8 | -1.6
Cc1csc(NC(=O)c2c(-c3ccccc3)noc2C)n1 | 1.3 | 0 | ? | 1 | · | 12 | 0.0 | -3.4
O=C(CCN1C(=O)/C(=C\c2ccccc2Cl)SC1=S)Nc1cccnc1 | 1.2 | · | -8.5 | 1 | -7% | -16 | -0.2 | -2.4
Cc1ccccc1NC(=O)CC1(c2ccc(N(C)C)cc2)C(=O)c2ccccc2C1=O | · | 5 | -0.7 | 27 | 3% | -8 | 0.6 | 0.8
COc1ccc(C)cc1-n1nnnc1SCC(=O)NC1CCS(=O)(=O)C1 (stereo not drawn) | -4.7 | -5 | · | · | 0% | · | -0.8 | 4.4
CNC[C@H]1Oc2ccc(NC(=O)Nc3ccccc3)cc2CC(=O)N([C@H](C)CO)C[C@H]1C | -1.2&-19 | 3 | · | · | · | · | 0.4 | 1.6
CCC(=O)Nc1cc(C(=O)O)ccc1Sc1ccccc1 | -2.8 | -3 | 2.5 | -6 | 2% | -1 | -0.5 | 13
CC1=C(C(=O)OC(C)C)C(c2cccc([N+](=O)[O-])c2)n2c(cc(=O)[nH]c2=S)N1 (stereo not drawn) | -12 | 4 | -1.6 | 0 | ? | -5 | 0.4 | 4.1
S=c1[nH]nc(-c2cccnc2)n1/N=C/c1cccs1 | · | -8 | 1.7 | -4 | -6% | 1 | 0.0 | -1.9
CCc1cccc(CC)c1NC(=O)CN1CCN(S(=O)(=O)c2ccccc2)CC1 | -0.3 | -8 | · | · | · | -4 | 0.3 | 2.4
COc1ccc(N2CCN(C(=O)CN(c3cccc(OC)c3)S(=O)(=O)c3ccccc3)CC2)cc1 | 10 | 2 | -0.3 | -1 | · | 17 | 1.2 | 0.2
COCC1CCN(Cc2cn[nH]c2-c2cc3ccccc3o2)C1 (stereo not drawn) | 0.2 | 2 | -2.4 | -7 | · | 69* | -0.3 | 0.1
CCOC(=O)N1CCC(NC(=O)c2ccc(CS(=O)(=O)c3ccc(OC)cc3)o2)CC1 | -1.1 | 6 | 7.3 | 9 | -1%&-1% | 7 | -0.8 | 0.4
CC(=O)Nc1ccccc1C(=O)C(=O)Nc1ccc(C(=O)NCC2CCCO2)cc1 (stereo not drawn) | -3.2 | 2 | -2.6 | -6 | · | -9 | 0.1 | 1.2
CCc1[nH]c(=O)c(C#N)c2c1CSC(C)(C)C2 | -8.1 | -1 | 2.8 | 3 | 12% | -32 | 0.0 | 0.8
O=C(N/N=C/c1cccc(O)c1)c1ccc(COc2cccc3cccnc23)cc1 | 0.2 | 6 | -0.8 | ? | · | -16 | 0.7 | -2.2
CCn1cnc2c1c(=O)n(CC(=O)Nc1ccc(C(N)=O)cc1)c(=O)n2Cc1ccccc1 | -29 | 2 | 1.4 | 1 | · | -10 | 1.0 | 6.6
CSCCC(NC(=O)c1cncc(Br)c1)C(=O)O (stereo not drawn) | 3.8 | -2 | 1.5 | -12 | 6% | -4 | 1.4 | -0.5
CCOC(=O)C1CCCN(C(=O)c2cc(-c3ccccc3)on2)C1 (stereo not drawn) | · | · | 1.7 | -2 | -2% | -8 | -0.4 | -4.0
CN(CCC#N)C(=O)COC(=O)c1ccccc1C(=O)c1ccc(Cl)c([N+](=O)[O-])c1 | -0.3 | -5 | 1.5 | -7 | 1% | -54 | 0.2 | -1.0
c1ccc(-c2onc(-c3ccco3)c2-c2ccc3[nH]ccc3c2)cc1 | 4.9 | -2 | -0.5 | 4 | · | 25 | -1.2 | -1.0
O=C(CS(=O)(=O)c1ccccc1)NCc1ccco1 | -0.4 | -3 | · | -13 | 4% | · | 0.7 | 1.7
O=C(NCCSC1CCCCC1)c1ccccc1 | 1.0 | 1 | -0.2 | -36 | -9% | 0 | -0.6 | 1.2
COc1ccccc1OCC(=O)N1CCNC1=O | -2.4 | -3 | -4.5 | -6 | 2% | -11 | 0.2 | 0.0
O=C(O)c1ccc(NC(CSCc2cccc(F)c2)C(=O)O)c([N+](=O)[O-])c1 (stereo not drawn) | 2.8 | -8 | -4.0 | -3 | 3% | -17 | -0.9 | -6.6
CCN(CC)CCNC(=S)Nc1ccc2nc3n(c(=O)c2c1)CCCCC3 | -0.6 | 3 | 2.2 | 4 | -1% | -4 | 1.4 | 0.2
CC1CN(CN2C(=O)c3ccccc3C2=O)CC(C)O1 (stereo not drawn) | · | -3 | -0.1 | 0 | -1% | -12 | 0.1 | 0.6
Cc1cc(C)cc(NC(=O)C2(c3ccccc3)CC2(Cl)Cl)c1 (stereo not drawn) | · | 5 | -2.6 | 1 | -9% | 27 | 0.2 | 1.6
CCCN(CCC)S(=O)(=O)c1ccc(N2CCCC2=O)c([N+](=O)[O-])c1 | -1.0 | -8 | -2.2 | -13 | 1% | 6 | 0.2 | -3.5
CCCn1c(SCC(=O)/C(C#N)=C(\C)N)n[nH]c1=O | · | · | 4.8 | -1 | 18% | 1 | 0.3 | 0.2
CCOc1cc(/C=C(/C#N)c2ccc(F)cc2)ccc1OCc1ccc(C(=O)O)o1 | · | · | -1.4 | -3 | 12% | -18 | 0.3 | 2.0
O=C(NC(=O)N1CCCCCC1)c1ccccc1 | -2.2 | -27 | -1.8 | -6 | · | -6 | -0.5 | 6.0
Cc1cc(CNC(=O)C2(C(F)(F)F)CC(CCCO)CCCO2)nn1C (stereo not drawn) | ? | -6 | -2.5 | 1 | · | -3 | 2.8 | -0.2
COc1ccc(N2C(=O)CCC(C(=O)O)C2c2ccc(OC)c(OC)c2)cc1 (stereo not drawn) | · | 3 | 4.9 | 4 | 0% | -10 | 3.1 | 1.6
O=C(NCCOCCNC(=O)OCc1ccccc1)OCc1ccccc1 | 1.0 | -1 | 2.4 | -10 | · | -1 | -0.1 | 2.5
CC1CCCCN1CCCNC(=O)c1ccc(NC(=O)C2=CSCCO2)cc1 (stereo not drawn) | -1.6 | 0 | 3.7 | 1 | · | -17 | 0.1 | 3.3
CS(=O)(=O)c1ccc(Cl)c(NC(=O)COC(=O)c2cccc(S(=O)(=O)N3CCCC3)c2)c1 | 1.4 | -4 | 3.9 | -1 | 0% | 3 | 0.3 | -3.4
Cc1cc(-c2nnc(SCC(=O)Nc3cccc(F)c3)n2N)n[nH]1 | -1.4 | 0 | -1.3 | 12 | · | 4 | 0.4 | 1.3
CC(C)=C(NC(=O)c1ccco1)C(=O)NCCc1nc2ccccc2[nH]1 | · | 2 | ? | -1 | 6% | -9 | -0.2 | -1.3
CC(=O)C1=C(C)Nc2ncnn2C1c1ccccc1F (stereo not drawn) | 2.0 | 0 | 1.3 | -2 | -4% | -7 | 0.6 | 0.6
Cc1cc(C)cc(N(CC(=O)NC2CCCC2)C(=O)CNC(=O)c2ccco2)c1 | -0.8 | -1 | -0.5 | 1 | · | 0 | 0.3 | 4.8
CC(=O)Nc1scc(-c2ccccc2)[n+]1-c1ccc(C)cc1 | 0.1 | -2 | 2.3 | 12 | 6% | 14 | -0.3 | -3.6
CCc1cc2c(C)cc(=O)oc2cc1Oc1ncccc1[N+](=O)[O-] | · | -9 | 1.3 | 22 | 8% | 5 | 0.0 | -2.1
COC(=O)c1c(NC(=O)c2ccccc2)sc(C(=O)c2ccccc2)c1C | · | 0 | 1.3 | ? | -8% | 17 | 0.6 | 2.8
CSc1nc(-c2ccccc2)c(C#N)c(=O)n1C | 0.9 | -2 | 5.2 | 1 | -5% | -2 | -0.6 | 3.1
The results go on.
SMILES | AF4-AF9 inh | Beta apoptosis | RanGTP-Imp inh | Calb FLC | Vif A3G | T cruzi repl | Bfl-1 A1 inh | LANA-H2B inh
Cc1ccc(NC(=O)NC2CC(=O)N(c3ccc4c(c3)OCCO4)C2)c(C)c1 (stereo not drawn) | 0.2 | · | 6.5 | -2 | -3% | -5 | -0.2 | -3.1
Cc1cc(OCC(=O)NNC(=O)c2cccs2)ccc1Br | -1.6 | 4 | 0.3 | 30 | · | -9 | -0.6 | 5.5
COC(=O)N/N=C\c1cc2c(cc1Br)OCO2 | -0.9 | -4 | -1.7 | 25 | 0% | -4 | 1.1 | -12
CC(=O)c1ccc(NC(=O)Cn2cnc(S(=O)(=O)N3CCCCC3)c2)cc1 | 0.3 | -5 | ? | -8 | 0% | -25 | 0.9 | -4.3
CCOC(=O)c1cn2c(C)cccc2n1 | -2.3 | -4 | 2.3 | 5 | · | -6 | -0.3 | 0.5
